Compound activity as filed in PubChem.
Mtb H37Rv = M. tuberculosis H37Rv growth inhibitors, H37Rv strain (AID 1626); M. tuberculosis H37Rv growth inhibition; higher % means a stronger effect; one-dose inhibition, % at 10 µM; IC50 in µM for titrated hits; 0.95% of 220,000 active;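 active means confirmed in a dose series; inconclusive means inhibition above 80% but not taken into the dose series; inactive means below 80% or under 30% at every dose of the series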;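 further: bacteria incubated seven days before Alamar blue readout; 0% = bacteria only wells and 100% = bacteria with antibiotic wells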
Mtb betalactam = beta-lactam sensitization of Mtb H37Rv, H37Rv. M. tuberculosis H37Rv growth with meropenem, percent inhibition; hits of this screen are not shown here. inhibition, % at 25 µM. 0.27% of 330,000 active. AID 434955, 2010;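 active means about 74% or more and at least 40 points above the plate without the antibiotic, then above 30% in a dose series; inconclusive means first-round hits that could not be retested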;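 further: growth measured after seven days incubation then overnight dye step; 0% = bacteria only wells and 100% = bacteria with antibiotic; twin plates without the antibiotic show which effects depend on it; some results filed as inactive read as strong as hits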
RecA intein inh = Mtb RecA intein splicing inhibitors, primary screen, biochemical, fluorescence, HTS. cell-free RecA intein splicing. inhibition, %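 (about 9 µM by stock and volumes)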. 0.75% of 290,000 active; in the data active means inhibition above about 30%; inconclusive means no clear call, values can overlap the other calls;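 further: 0% = vehicle wells and 100% = reference inhibitor control wells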
Target sequence (P9WHJ3 whole entry, looked up): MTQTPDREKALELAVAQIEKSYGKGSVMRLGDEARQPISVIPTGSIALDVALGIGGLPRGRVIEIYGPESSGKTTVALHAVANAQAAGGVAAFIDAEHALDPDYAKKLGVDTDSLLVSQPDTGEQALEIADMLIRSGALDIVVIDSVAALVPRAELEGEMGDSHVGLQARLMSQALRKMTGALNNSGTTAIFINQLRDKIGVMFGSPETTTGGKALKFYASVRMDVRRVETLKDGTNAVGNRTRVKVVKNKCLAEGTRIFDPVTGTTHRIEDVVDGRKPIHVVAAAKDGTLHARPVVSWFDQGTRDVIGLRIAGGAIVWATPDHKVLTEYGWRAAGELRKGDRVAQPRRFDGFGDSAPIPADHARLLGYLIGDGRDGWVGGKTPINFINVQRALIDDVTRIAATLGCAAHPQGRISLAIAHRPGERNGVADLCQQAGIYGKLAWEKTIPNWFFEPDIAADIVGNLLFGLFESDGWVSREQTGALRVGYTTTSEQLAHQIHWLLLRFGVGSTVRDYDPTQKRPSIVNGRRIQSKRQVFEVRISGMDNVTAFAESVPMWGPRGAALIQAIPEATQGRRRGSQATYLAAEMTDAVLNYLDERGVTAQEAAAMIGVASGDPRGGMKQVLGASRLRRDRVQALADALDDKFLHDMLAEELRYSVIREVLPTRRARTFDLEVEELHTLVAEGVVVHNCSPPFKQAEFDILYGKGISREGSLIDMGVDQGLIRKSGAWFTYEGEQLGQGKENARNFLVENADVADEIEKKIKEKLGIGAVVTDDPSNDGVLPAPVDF
YopH inh = YopH tyrosine phosphatase inhibitors, primary screen, biochemical, fluorescence Ex485/Em525 | 0.16% of 140,000 active | inhibition, %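 (about 10 µM by stock and volumes)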;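 active means inhibition of 50% or more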;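 further: controls were vehicle for no effect and minimum signal wells for full effect; inactives centre near -20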
Arbovirus inh = antivirals against arbovirus infection, primary screen, cell-based, full library, 10K replicate subset. arbovirus infection cell-based antiviral screen. inhibition, % at 10 µM. 0.37% of 200,000 active;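 active means inhibition from about 30%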;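 further: bluetongue infection of BSR cells; cell survival read as ATP light after 72 h; 0% = infected wells without compound and 100% = uninfected wells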
Arbovirus inh repeat = second read-out of Arbovirus inh, no call of its own (marks repeat the call); inhibition, %; measured here: 10K subset replicate screen; many hits read low in the repeat;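 first of two repeat runs on a subset; 0% = infected and 100% = uninfected wells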
Starred values were filed as active, the others as inactive. An excerpt; the hit share may differ from the screen's.

CC(C)=C1C2CCC1C1C(=O)N(c3nc(-c4ccc(F)cc4)c(C)s3)C(=O)C21 (stereo not drawn) was read as Mtb H37Rv 0%, Mtb betalactam -4, RecA intein inh -1.0, YopH inh -33 and Arbovirus inh -6.
Screening CCc1ccccc1NC(=O)Nc1ccon1 returned Mtb betalactam 4 and RecA intein inh 0.9.
`O=C(Cn1cnc2c(cnn2-c2ccc(Cl)cc2)c1=O)NCCc1ccccc1` gave Mtb H37Rv -8%, Mtb betalactam -7, RecA intein inh 1.5, YopH inh -26 and Arbovirus inh 5.
Cc1cc(C(=O)CSc2nnc(-c3cccs3)o2)c(C)n1-c1ccccc1 was read as Mtb H37Rv 2%, Mtb betalactam -6, RecA intein inh 7.9, YopH inh -30 and Arbovirus inh 25.
Cc1cc(C)cc(N2CC34C=CC(O3)C(C(=O)OCC(=O)NCc3ccco3)C4C2=O)c1 (stereo not drawn) was read as Mtb H37Rv 0%, Mtb betalactam -7, RecA intein inh -2.1, YopH inh -40 and Arbovirus inh 9.
For Nc1cnn(Cc2ccccc2F)c1 the results were Mtb H37Rv 37%, Mtb betalactam 31, RecA intein inh 27 and Arbovirus inh -23.
Screening CC(Cc1c[nH]c2ccccc12)NC(N)=O (stereo not drawn) returned Mtb H37Rv -6%, Mtb betalactam -3 and Arbovirus inh 16.
For COC(=O)[C@@]12CCCCN1[C@H](c1ccc(-c3cc(C(C)=O)cs3)cc1)[C@H]1C(=O)N(C)C(=O)[C@H]12 the results were Mtb betalactam 3 and RecA intein inh -1.7.
Screening O=C(N/N=C/c1c(F)cccc1Cl)c1ccc(Cn2cc(Br)cn2)o1 returned Mtb H37Rv 7%, Mtb betalactam -2, RecA intein inh -2.6, YopH inh 3 and Arbovirus inh -2.
O=C(Nn1c(Cc2cccs2)nc2ccccc2c1=O)c1ccc(F)c(F)c1 was read as Mtb H37Rv 2%, Mtb betalactam -1, RecA intein inh 2.7, YopH inh 21 and Arbovirus inh 3.
For COCCn1c(SCC(=O)Nc2ccccc2F)nc2c([nH]c3ccccc32)c1=O the results were Mtb betalactam -11 and RecA intein inh -0.8.
COc1ccc(OC)c(S(=O)(=O)N2CCC3(CC2)CC(=O)c2ccccc2O3)c1 was read as Mtb betalactam -9 and RecA intein inh 1.4.
Screening Oc1ccc(C[C@H]2CNCCN2CCC23CC4CC(CC(C4)C2)C3)cc1 returned Mtb betalactam -2 and RecA intein inh -0.9.
Screening CCCCOc1ccc(C(C)NC(=O)C2CCCN(S(=O)(=O)CCC)C2)cc1 (stereo not drawn) returned Mtb H37Rv -4%, Mtb betalactam 5, RecA intein inh 2.4, YopH inh 7 and Arbovirus inh -16.
CC(C)C(NS(=O)(=O)c1ccc2c(c1)Cc1cc(S(=O)(=O)NC(C(=O)O)C(C)C)ccc1-2)C(=O)O (stereo not drawn) was read as Mtb betalactam -7 and RecA intein inh 0.0.
For CCOC(=O)Cn1cc(C#N)c(=O)[nH]c1=O the results were Mtb H37Rv 0%, Mtb betalactam 19 and RecA intein inh -1.9.
`CC(Oc1cc2oc(=O)c3c(c2cc1Cl)CCCC3)C(=O)NCc1ccncc1` (stereo not drawn) gave Mtb betalactam 88 and RecA intein inh 0.1.
`O=C(N/N=C/c1cccs1)c1ccc(-n2cccc2)cc1` gave Mtb H37Rv 3%, Mtb betalactam 14, RecA intein inh -0.7 and Arbovirus inh 4.
CCc1noc(C)c1C(=O)Nc1nc(-c2cccs2)cs1 was read as Mtb betalactam 29 and RecA intein inh 6.3.
NS(=O)(=O)c1cccc(NC(=S)NC(=O)c2cccc([N+](=O)[O-])c2)c1 was read as Mtb H37Rv 14%, Mtb betalactam -2, RecA intein inh 7.9 and Arbovirus inh 1.
`O=S1(=O)N=C(N/N=C/c2ccco2)c2ccccc21` gave Mtb H37Rv 8%, Mtb betalactam 0 and Arbovirus inh -4.
O=C(c1cc(COc2c(F)cccc2F)on1)N1CCN(C2CCCCC2)C(=O)C1 was read as Mtb betalactam 3 and RecA intein inh -4.9.
Cc1ccc(S(=O)(=O)N(C)CCCC(=O)Nc2ccncc2)cc1 was read as Mtb betalactam -2, RecA intein inh 1.9, YopH inh -8, Arbovirus inh 7 and Arbovirus inh repeat 14.
Cc1c2cnn(CC(=O)NCCCN3CCCCC3C)c(=O)c2c(C)n1Cc1ccccc1 (stereo not drawn) was read as Mtb betalactam -6 and RecA intein inh 1.7.
`Cc1ccc(NC(=S)N(Cc2cccs2)Cc2cc3cccc(C)c3[nH]c2=O)cc1` gave Mtb H37Rv 2%, Mtb betalactam -1, RecA intein inh -2.5, YopH inh -35 and Arbovirus inh 12.
NC(=S)N/N=C/c1ccccc1OCc1cccc(Cl)c1 was read as Mtb H37Rv 21%, Mtb betalactam 16, RecA intein inh -2.4, YopH inh -27 and Arbovirus inh -30.
CC1CC(=O)C2=C(C1)Nc1ncnn1C2c1ccccc1 (stereo not drawn) was read as Mtb H37Rv 2%, Mtb betalactam 8, YopH inh -43 and Arbovirus inh 3.
For Cc1cc(C(=O)Nc2c(F)cc(F)cc2Br)c(C)o1 the results were Mtb H37Rv -7%, Mtb betalactam inconclusive, RecA intein inh 6.2, YopH inh -44 and Arbovirus inh 2.
For O=C(c1cccc(F)c1)N1CCN(c2ccc([N+](=O)[O-])c3cccnc23)CC1 the results were Mtb H37Rv 0%, Mtb betalactam 5, RecA intein inh -0.8 and Arbovirus inh -3.
Screening O=C(Nc1ccc(NC(=O)c2cccnc2Cl)cc1)c1cccc(Cl)c1 returned Mtb betalactam 2 and RecA intein inh -0.9.
CS(=O)(=O)Nc1ccccc1C(=O)NCc1ccccc1Cl was read as Mtb H37Rv -23%, Mtb betalactam 1, RecA intein inh 4.9 and Arbovirus inh -1.
Screening O=C(Cn1cc(C(=O)C2CCCCC2)c2ccccc21)NCC1CCCO1 (stereo not drawn) returned Mtb H37Rv -6%, Mtb betalactam -2, RecA intein inh 1.9 and Arbovirus inh 1.
Screening CCN(CC(=O)Nc1ccc2c(c1)OCCO2)S(=O)(=O)c1ccc(F)cc1 returned Mtb betalactam 3 and RecA intein inh 0.7.
Screening CCOCCCNCc1cc(Br)ccc1OCc1ccccc1 returned Mtb H37Rv 11%, Mtb betalactam 6, RecA intein inh -3.4, YopH inh -12 and Arbovirus inh 15.
`Cc1ccc(-c2ccc(/C=N/NC(=O)CN3CCOCC3)o2)cc1[N+](=O)[O-]` gave Mtb H37Rv -7%, Mtb betalactam -2, RecA intein inh 17 and Arbovirus inh -13.
COc1ccc(-c2nc(CN3CCN(Cc4cccc(Cl)c4)CC3)c(C)o2)cc1 was read as Mtb betalactam 7 and RecA intein inh 7.2.
COC(=O)C1=C(C)NC(=O)CC1c1ccc(C(=O)OC)cc1 (stereo not drawn) was read as Mtb H37Rv 3%, Mtb betalactam -5, RecA intein inh -0.6, YopH inh -24 and Arbovirus inh 7.
Screening CNC(=O)CSc1nc2ccccc2c(=O)n1-c1cc(OC)ccc1OC returned Mtb H37Rv -6%, Mtb betalactam -11 and RecA intein inh -0.5.
`COc1cc(OC)c(OC)cc1/C=N/NC(=O)c1ccc(=O)n(C)c1` gave Mtb H37Rv 9%, Mtb betalactam 2, RecA intein inh -3.0, YopH inh -12 and Arbovirus inh 12.
Screening COc1cccc(-c2nc(-c3ccc(Br)o3)no2)c1 returned Mtb H37Rv -2%, Mtb betalactam 2 and RecA intein inh 4.7.
For CC(C)Cn1c(N)c(C(=O)COC(=O)c2ccc(F)cc2)c(=O)n(C)c1=O the results were Mtb H37Rv 7%, Mtb betalactam 15, RecA intein inh 0.1 and Arbovirus inh 5.
For O=C(O)c1cn(-c2ccc(F)c(F)c2)c2c(F)c(F)c(F)c(F)c2c1=O the results were Mtb H37Rv 7%, Mtb betalactam 1, RecA intein inh 2.9, YopH inh -19 and Arbovirus inh 2.
CCOC(=O)CC(=O)CSc1ncnc2c1nnn2-c1ccc(F)cc1 was read as Mtb H37Rv -2%, Mtb betalactam 6, RecA intein inh -0.2 and Arbovirus inh 3.
CCCCCCCC[n+]1cccc(C(=O)N2c3c(nc(N)[nH]c3=O)NC(C)C2C)c1 (stereo not drawn) was read as Mtb H37Rv 10%, Mtb betalactam 0, RecA intein inh 0.3, YopH inh -30 and Arbovirus inh -5.
For O=C(NCc1ccncc1)C(=O)NCc1ccco1 the results were Mtb H37Rv -6%, Mtb betalactam -3, RecA intein inh -1.8 and Arbovirus inh 0.
Screening O=C1CNC(=O)/C1=C\N1CCCCC1 returned Mtb H37Rv -7%, Mtb betalactam 0, RecA intein inh 0.3, YopH inh -49 and Arbovirus inh 12.
Screening COc1cccc2cc(/C(=N/O)c3ccccc3)oc12 returned Mtb H37Rv 16%, Mtb betalactam 11, RecA intein inh 4.8 and Arbovirus inh -9.
`Cc1noc(C)c1COc1ccc(C(=O)OCC(=O)Nc2c(C)n(C)n(-c3ccccc3)c2=O)cc1` gave Mtb H37Rv -4%, Mtb betalactam -2, RecA intein inh 0.2 and Arbovirus inh 2.
Screening O=C(NNS(=O)(=O)c1cc(Cl)cc(Cl)c1)c1sccc1-n1cccc1 returned Mtb H37Rv 5%, Mtb betalactam 12, RecA intein inh 5.7, YopH inh -52 and Arbovirus inh 13.
O=S(=O)(c1ccccc1)c1nnn2c1nc(NC1CCN(Cc3ccccc3)CC1)c1ccccc12 was read as Mtb betalactam 90 and RecA intein inh -1.4.

The list goes on, overlapping the part above by 4 compounds.
Screening COc1cccc2cc(/C(=N/O)c3ccccc3)oc12 returned Mtb H37Rv 16%, Mtb betalactam 11, RecA intein inh 4.8 and Arbovirus inh -9.
`Cc1noc(C)c1COc1ccc(C(=O)OCC(=O)Nc2c(C)n(C)n(-c3ccccc3)c2=O)cc1` gave Mtb H37Rv -4%, Mtb betalactam -2, RecA intein inh 0.2 and Arbovirus inh 2.
Screening O=C(NNS(=O)(=O)c1cc(Cl)cc(Cl)c1)c1sccc1-n1cccc1 returned Mtb H37Rv 5%, Mtb betalactam 12, RecA intein inh 5.7, YopH inh -52 and Arbovirus inh 13.
O=S(=O)(c1ccccc1)c1nnn2c1nc(NC1CCN(Cc3ccccc3)CC1)c1ccccc12 was read as Mtb betalactam 90 and RecA intein inh -1.4.
Screening O=C1C2C3c4ccccc4C(c4ccccc43)C2C(=O)N1Cc1ccco1 (stereo not drawn) returned Mtb H37Rv 1%, Mtb betalactam -2, RecA intein inh 0.8, Arbovirus inh -1 and Arbovirus inh repeat 5.
For COc1ccc(N=Nc2ccc(O)c3ncccc23)cc1 the results were Mtb H37Rv inconclusive, Mtb betalactam 83 and RecA intein inh 10.
For COCc1cc(=O)[nH]c(/N=C(\N)Nc2ccc(Oc3ccccc3)cc2)n1 the results were Mtb H37Rv 3%, Mtb betalactam 18, RecA intein inh -1.5, YopH inh -31 and Arbovirus inh -6.
For Cc1ccc(C)n1-c1nccc(-c2ccco2)n1 the results were Mtb H37Rv 1%, Mtb betalactam 2, RecA intein inh -40 and Arbovirus inh -3.
CCCn1c(SCC(=O)Nc2cc(S(=O)(=O)N3CCOCC3)ccc2OC)n[nH]c1=O was read as Mtb H37Rv -4%, Mtb betalactam -1, RecA intein inh 0.7, YopH inh -27 and Arbovirus inh 0.
For CCOC(=O)C1CCN(C(=O)C2CCN(S(=O)(=O)c3ccc4c(c3)CC(C)N4C(C)=O)CC2)CC1 (stereo not drawn) the results were Mtb betalactam 0 and RecA intein inh 0.8.
COc1ccc(CCNC(=O)Cc2cc(OC)c(OC)cc2Br)cc1OC was read as Mtb H37Rv 6%, Mtb betalactam -11, RecA intein inh -0.9 and Arbovirus inh 12.
For Cn1c(N)cc(=O)n(Cc2ccccc2)c1=O the results were Mtb H37Rv -9%, Mtb betalactam -4, RecA intein inh 0.2, YopH inh -30 and Arbovirus inh 3.
CC1CC1C(=O)OCC(=O)Nc1cccc([N+](=O)[O-])c1 (stereo not drawn) was read as Mtb H37Rv -2%, Mtb betalactam -4 and Arbovirus inh 4.
Screening O=C(O)C1CCCN(C(=O)c2cccc3ccccc23)C1 (stereo not drawn) returned Mtb betalactam -1 and RecA intein inh 0.4.
`CCOC(=O)c1ccccc1N1C(=O)C2Sc3[nH]c(=O)sc3C(/C=C/c3ccccc3)C2C1=O` (stereo not drawn) gave Mtb H37Rv -7%, Mtb betalactam -3, RecA intein inh 14, YopH inh -11 and Arbovirus inh 0.
Screening CCc1ccccc1NC(=O)C1CCCN(c2ncnc3onc(-c4ccc(F)cc4)c23)C1 (stereo not drawn) returned Mtb betalactam 4 and RecA intein inh -2.8.
CCCCn1c(N)c(N(CC(C)C)C(=O)c2ccc(-c3ccc([N+](=O)[O-])cc3)o2)c(=O)[nH]c1=O was read as Mtb betalactam -10 and RecA intein inh -4.1.
